GLA inh pH 4.5 – qHTS Assay for Inhibitors of Human alpha-Galactosidase at pH 4.5; purified enzyme, 4-MU-alpha-Gal fluorescence, pH 4.5; AID 1467, 2008; activity change, negative = inhibition, % at 105 µM; Alpha-galactosidase A (Homo sapiens), P06280; 230,000 tested, under 10 active; inconclusive = small, poorly fitted or top-dose-only inhibition, or a rising curve; inactive = flat fitted curve, though single readings scatter; no compound was filed as active;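 further: 0% = full activity with enzyme and -100% = basal without enzyme; dose as in the result columns while the protocol names 77 µM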
Target sequence (P06280 whole entry, looked up): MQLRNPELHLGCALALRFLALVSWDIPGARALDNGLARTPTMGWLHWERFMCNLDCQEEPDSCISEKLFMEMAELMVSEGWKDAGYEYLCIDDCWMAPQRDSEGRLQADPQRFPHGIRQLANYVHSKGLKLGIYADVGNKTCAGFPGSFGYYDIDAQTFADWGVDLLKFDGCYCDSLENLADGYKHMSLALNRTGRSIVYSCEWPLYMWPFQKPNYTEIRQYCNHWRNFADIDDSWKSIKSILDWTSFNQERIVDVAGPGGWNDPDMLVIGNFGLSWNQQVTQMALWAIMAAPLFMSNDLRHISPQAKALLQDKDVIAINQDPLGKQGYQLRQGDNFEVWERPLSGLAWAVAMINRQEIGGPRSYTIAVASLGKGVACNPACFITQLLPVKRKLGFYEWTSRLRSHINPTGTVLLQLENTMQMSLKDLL
Rango release inh – qHTS Assay for Inhibitors of RanGTP induced Rango (Ran-regulated importin-beta cargo) - Importin beta complex dissociation. Biochemical FRET Rango-importin beta, RanGTP-induced dissociation. 0.071% of 340,000 active. AID 540253, 2011. Potency, µM (series often up to 46.1 µM), for inactives: top-dose activity change, negative = inhibition; active means falling FRET ratio curve, often poorly fitted, with flat reads before Ran was added; inconclusive means other falling curves, or compound fluorescence or quenching; inactive means flat or rising ratio curve;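 further: potency means the concentration at half of the fitted maximal effect; % of control where 0% means no effect; nearly all actives have a fitted effect of over 45% in size; -100% = wells without RanGTP and RCC1; the record marks most hits as doubtful in a second field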
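FRET read at 45 min, room temperature: inhibitors block the CFP/YFP signal rise when RanGTP (0.6 uM Ran, 2 mM GTP, 0.2 uM RCC1) frees Rango (0.1 uM) from importin beta (0.25 uM). Pre-read after 5 min compound exposure flags interference.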
Rango complex inh – qHTS Assay for Inhibitors of Rango (Ran-regulated importin-beta cargo) - Importin beta complex formation; Importin subunit beta-1 (Homo sapiens), Q14974; Rango CFP/YFP FRET sensor + importin beta, 45 min; Potency, µM (titrated, usually from 92.2 µM), for inactives: top-dose inhibition of complex formation; 0.031% of 340,000 active; active = rising FRET ratio curve, often small or poorly fitted; inconclusive = mostly compound fluorescence or quenching in the first reads; inactive = flat curves in all reads;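 further: potency means the concentration at half of the fitted maximal effect; 0% = DMSO wells and 100% = buffer wells lacking importin beta; nearly all actives have a fitted effect of over 15% in size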
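FRET biosensor (snurportin 1 IBB flanked by EYFP and cerulean), 50 nM, with compound 5 min, then 0.125 microM importin beta in PBS, 1 mM DTT, 0.02% Tween-20, 0.1% BSA. CFP/YFP ratio read after 45 min at room temperature; pre-read flags interference.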
miR-21 FLuc – qHTS Assay for Modulators of miRNAs and/orActivators of miR-21. AID 2288, 2010. Potency, µM (doses to about 38.3 µM), for inactives: at the highest dose reporter change, positive = more light. 340,000 tested, under 10 active. HeLa miR-21 FLuc reporter, luciferase, 48 h; active = well fitted rising curve with a large enough effect; inconclusive = small, poorly fitted or top-dose-only effect; inactive = no such curve, though single readings can be large or run the other way;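 further: % of control where 0% means no effect; miR-21 action dims this reporter so a rising signal means less miR-21 action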
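HeLa cells stably expressing CMV-driven firefly luciferase with a downstream miR-21 binding sequence, endogenously expressing miR-21, were treated with titrations (up to about 40uM final) for 48 hours at 37 degree Celsius. Luciferase luminescence was read after lysis.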
Numbers without * were called inactive; u = inconclusive; x = not tested or not shown. Some of the compounds tested; the hit share may differ from the screen's.

GLA inh pH 4.5,Rango release inh,Rango complex inh,miR-21 FLuc,Structure
x,19.1%,0.1%,-16.0%,O=C(Nc1ncc2c(n1)CC(c1cccc(Cl)c1)CC2=O)c1ccco1 (centres undefined)
-0.3,-8.8%,0.1%,1.2%,CC(C)(C)NC(=O)NCc1ccco1
-6.5,10.8%,3.9%,12.9%,COc1cccc(-c2nc(N3CCCCC3C)c3ccccc3n2)c1O (centres undefined)
-7.3,1.2%,1.0%,3.3%,CC(C)(C)Nc1nc(OCC#N)nc(N2CCCCC2)n1
1.6,0.9%,-3.4%,-5.5%,CC(C)CC(NC(=O)C1CCC(C)CC1)C(=O)NCc1cccnc1 (centres undefined)
x,u,u,4.4%,COc1cc(/C=N/NC(=O)c2cc(-c3ccccc3)nc3ccccc23)ccc1O
3.0,-7.3%,-0.6%,7.5%,Cn1nnc(NC(=O)C(c2ccccc2)c2ccccc2)n1
-2.9,-5.1%,-0.2%,-1.2%,O=C(NCN1C(=O)C2C3C=CC(C3)C2C1=O)Nc1nccs1 (centres undefined)
-9.7,x,x,27.3%,CCOC(=O)C1=C(C)NC(SCC(=O)Nc2nc(C)cs2)=C(C#N)C1c1cccs1 (centres undefined)
-1.2,-14.8%,-0.8%,-5.3%,COc1ccc(CCNC(=O)CN(c2cc([N+](=O)[O-])ccc2OC)S(C)(=O)=O)cc1
x,-8.0%,0.4%,-9.3%,COc1ccc(C(=O)C2CCCN(C(=O)c3cccc(N(C)C)c3)C2)cc1OC (centres undefined)
5.6,-10.4%,-1.4%,-5.7%,O=C(c1csc2ccccc12)N1CCN(c2ccccn2)CC1
x,u,5.0%,x,COc1ccc(COC(=O)Oc2ccc(CNC(C)=O)cc2OC)c([N+](=O)[O-])c1
x,-3.0%,-3.4%,x,COc1cc2nc(N(CCCN(C)C)C(=O)c3ccc(S(=O)(=O)N4CCc5ccccc5C4)cc3)sc2cc1OC
11.1,-4.8%,1.0%,-2.3%,CCCCNC(=O)c1cc2nc3c(c(C(F)(F)F)n2n1)CCc1ccccc1-3
-9.7,-14.1%,-5.9%,-36.7%,COc1ccc(CSc2nnc(N)s2)cc1F
x,-14.1%,-0.3%,-0.6%,COc1ccc(C(=O)NC2CC3CCCC(C2)N3Cc2ccccc2)cc1 (centres undefined)
-5.1,1.3%,-0.8%,-13.6%,Cc1nn(Cc2ccccc2)c(N)c1-c1ccccc1
x,-13.8%,-0.1%,-5.1%,Cc1[nH]c2ccccc2c1C(=O)COC(=O)C1CCC1
x,14.6%,1.5%,-0.9%,O=C(NCc1ccccc1Cl)C1CCN(C(=O)c2ccco2)CC1
x,-18.5%,6.0%,x,COc1ccc(CCNC(=O)c2cc(S(=O)(=O)N3CCOCC3)ccc2F)cc1
x,-12.1%,8.0%,x,CCN(c1ccccc1)S(=O)(=O)c1cc(NC(=O)C2CC2)ccc1Cl
u,14.0%,-1.3%,-1.3%,C=CCn1c(O)c(C2=c3ccccc3=NC2=O)sc1=Nc1ccc(O)cc1
x,2.0%,-0.3%,-4.4%,O=c1[nH]cnc(O)c1C(c1ccc(F)cc1)c1c(O)nc[nH]c1=O
-12.3,-5.6%,-4.2%,-1.4%,Cc1occc1-c1nnc(SCC(=O)Nc2ccc(F)cc2)n1Cc1ccccc1
-0.5,14.2%,-5.3%,0.1%,Cc1c(Br)c([N+](=O)[O-])nn1CC(=O)N1CCN(Cc2ccccc2)CC1
2.0,0.1%,-3.0%,-0.9%,N#CC1=C(N)N(c2ccccc2)C(=O)C1
x,13.7%,0.7%,-0.3%,O=C1CCC(C(=O)N2CCC(O)(c3ccccc3)CC2)CN1CCc1ccccc1 (centres undefined)
x,7.1%,-0.3%,-11.4%,COc1ccc(Br)cc1CN(C)C(=O)c1cnc(C)cn1
-1.6,15.7%,4.9%,0.0%,O=C(Cc1sc(-c2ccccc2)nc1-c1ccccc1)Nc1ccccc1
11.2,0.3%,0.2%,-47.2%,CC1CC(=O)c2cnc(Nc3ccccc3)nc2C1 (centres undefined)
x,-0.9%,u,x,COc1ccc(-c2ccc3nnc(SCC(=O)N4CCCC4)n3n2)cc1
-7.4,-6.0%,-1.3%,0.1%,Cc1ccc(C)c(N(CC(=O)NC2CCCC2)C(=O)CCCC(=O)Nc2ccccn2)c1
6.5,6.7%,6.5%,2.6%,COc1cccc(C2=NOC(C(=O)Nc3cc(C)on3)C2)c1 (centres undefined)
x,14.6%,0.1%,x,C=C[C@H](Cc1ccccc1)N(Cc1ccccc1)S(=O)(=O)N(Cc1ccccc1)[C@H](C=C)Cc1ccccc1
-0.9,u,u,-14.4%,CCOC(=O)c1c(NC(=O)/C=C/c2ccc3c(c2)OCO3)sc(C)c1CC
x,-5.4%,-1.3%,x,CC(=O)c1ccccn1
x,0.0%,-0.2%,x,Cc1cccnc1NC(=O)CNC(=O)COc1ccccc1
x,2.4%,-3.5%,-4.7%,Cc1ccc(-c2c(C(=O)N/N=C/c3cccc(Cl)c3)nnn2-c2nonc2N)cc1
-7.9,9.0%,-3.3%,-11.1%,Cc1ccc(C)c(-c2cc(C(=O)Nc3cccc(C(=O)O)c3)c3ccccc3n2)c1
x,-1.5%,1.0%,-1.9%,CC1Oc2ccccc2N(CC(=O)NCCN2CCOCC2)C1=O (centres undefined)
-29.2,8.5%,0.3%,-7.7%,CC(=O)Nc1ccc(-n2cc(-c3ccccc3)[nH]c2=S)cc1
0.1,17.7%,-0.1%,1.7%,Cc1nn(-c2c(Cl)cc(Cl)cc2Cl)c(=O)c2ccccc12
x,-10.5%,-1.0%,x,CC(C)(O)CC[C@@H](O)[C@](C)(O)C1CC[C@@]2(O)C3=CC(=O)[C@]4(O)C[C@@H](O)[C@@H](O)C[C@]4(C)C3CC[C@]12C (some centres undefined)
x,7.2%,0.7%,x,COc1ccc(NC(=O)c2cc(S(=O)(=O)N3CCCC3)ccc2C)cn1
x,3.8%,-0.2%,x,Cc1ccc(C(=O)OCC(=O)N2CCCc3ccccc32)cc1C
0.0,32.6%,3.0%,-2.3%,CCOC(=O)C1=NN(c2ccccc2)C2(S1)SC(C(C)=O)=C(C)N2c1ccccc1 (centres undefined)
x,21.7%,-0.3%,x,COc1ccc(S(=O)(=O)Nc2cccc3c2O[C@H](CN(C)C(=O)Nc2c(C)noc2C)[C@@H](C)CN([C@H](C)CO)C3=O)cc1
-2.1,9.7%,1.1%,-3.9%,NC(=O)c1ccc(Cl)c2ccccc12
x,0.6%,-5.1%,x,CSc1ccccc1C(=O)OCC(=O)Nc1cccnc1Cl
0.9,5.8%,-0.5%,2.7%,CCCNC(=O)CC(NS(=O)(=O)c1ccc(OC)cc1)c1ccco1 (centres undefined)
4.0,u,u,-3.2%,N#C/C(=C/c1ccc(F)cc1)c1nnc(NC(=O)c2ccccc2)s1
x,-1.1%,-0.1%,x,COC(=O)[C@]1(Cc2ccccc2)N[C@H](CN(C)S(=O)(=O)c2ccc(OC(F)(F)F)cc2)[C@@H]2C(=O)N(Cc3ccccc3)C(=O)[C@@H]21
-6.0,0.5%,-3.6%,-0.5%,O=C(/C=C/c1ccccc1Cl)N(Cc1cccs1)C1CCS(=O)(=O)C1 (centres undefined)
8.9,0.3%,-0.3%,-2.3%,C=CCO/N=C(/CCC)C1=C(N)CC(C)(C)CC1=O
x,1.4%,-3.9%,1.8%,O=C(NCC(O)c1ccc([N+](=O)[O-])cc1)Nc1ccccc1 (centres undefined)
x,14.9%,1.9%,11.9%,CCOc1cc(CN2CCN(S(=O)(=O)Cc3ccccc3)CC2)ccc1OC
x,17.7%,-1.3%,22.2%,Nc1ccc(-c2ncc(-c3ccccc3)o2)cc1
-12.8,0.5%,0.4%,7.1%,Cc1onc(-c2ccccc2)c1CNC(=O)Nc1ccccc1
x,0.5%,4.0%,x,CC(C)(C)C1N=C(c2ccc3ccccc3c2)OC1=O (centres undefined)

Later entries.
GLA inh pH 4.5,Rango release inh,Rango complex inh,miR-21 FLuc,Structure
x,-7.7%,3.0%,x,O=C(NC1(Cc2ccccc2)CCN(CCc2cccs2)C1=O)c1ccccc1 (centres undefined)
-0.9,-8.5%,-0.1%,-0.3%,Cc1nc(N)[nH]c(=O)c1Oc1cccc(C(F)(F)F)c1
0.2,-6.6%,-4.6%,23.8%,CCN(CC)S(=O)(=O)c1ccc2c(c1)C(=NO)c1cc(S(=O)(=O)N(CC)CC)ccc1-2
-1.6,-5.6%,-1.4%,-9.3%,Cc1nn(-c2ccccc2)c(Cl)c1/C=N\NC(=O)c1cnccn1
-6.5,1.5%,u,27.9%,CCN(CC(=O)NC(C)(C)C)C(=O)COc1c(Cl)cc(Cl)c2ccc(C)nc12
1.2,18.7%,-0.1%,-4.3%,O=C(NNc1ncnc2c1cnn2-c1ccccc1)c1ccco1
-4.1,36.9%,7.6%,-22.4%,S=C(NCCc1c[nH]c2ccccc12)NC1CCCCC1
x,22.2%,0.4%,-0.3%,COc1ccc(S(=O)(=O)N2CCC(NC(=O)c3ccccc3)CC2)cc1
4.4,-14.5%,4.6%,-24.9%,COc1ccc(C2C(C(=O)NCCCN3CCOCC3)c3ccccc3C(=O)N2c2ccc(OC)cc2)cc1 (centres undefined)
x,-11.2%,-1.5%,-44.1%,CC(=O)Nc1ccc(-c2cn3c(n2)SCC3)cc1
8.7,-8.8%,-1.0%,-9.4%,COc1ccc(-n2nc(C(=O)N3CCN(Cc4ccc5c(c4)OCO5)CC3)c3ccccc3c2=O)cc1
-10.7,-3.0%,-1.6%,-9.6%,O=C(COc1ccc2ccccc2c1)N1CCN(C(=O)c2cccs2)CC1
2.3,0.4%,4.3%,0.0%,Cc1ccc(NS(=O)(=O)c2cc(C(=O)N3CCN(C)CC3)ccc2C)cc1C
x,-21.6%,4.6%,1.1%,OCC[C@@H]1C[C@@H](O)[C@H](O)[C@@]2(Cc3ccccc3O2)O1
-10.4,-5.6%,u,-1.2%,N=C1S/C(=C\c2ccc(-c3cccc(Cl)c3)o2)C(=O)N1c1nccs1

Record cards, from the list above:
`O=C(COc1ccc2ccccc2c1)N1CCN(C(=O)c2cccs2)CC1` as listed: GLA inh pH 4.5: -10.7; Rango release inh: -3.0%; Rango complex inh: -1.6%; miR-21 FLuc: -9.6%
`S=C(NCCc1c[nH]c2ccccc12)NC1CCCCC1` as listed: GLA inh pH 4.5: -4.1; Rango release inh: 36.9%; Rango complex inh: 7.6%; miR-21 FLuc: -22.4%

Next results follow.
GLA inh pH 4.5,Rango release inh,Rango complex inh,miR-21 FLuc,Structure
18.4,x,x,-45.3%,Cc1ccc(C(=O)Oc2oc(-c3ccco3)nc2C=Nc2ccccc2)cc1
x,-8.2%,-3.1%,x,CCOC(=O)COc1c(Cl)cc(/C=C2\N=C(C)OC2=O)cc1OC
x,-1.6%,-0.5%,-36.6%,CCCc1cc(=O)oc2c(C)c(OCC(=O)Nc3ccccn3)ccc12
x,5.2%,-0.6%,x,COc1ccccc1CCC(=O)N1CCN(S(=O)(=O)c2cc(C(F)(F)F)ccc2Cl)CC1
2.2,0.2%,u,15.7%,Cc1cccc(C)c1-n1c(SCC(=O)N2CC(=O)Nc3ccccc32)nc2ccccc2c1=O
1.7,4.4%,3.2%,-1.9%,CC(C)c1ccccc1NC(=O)CCCC(=O)O
-1.0,-9.0%,0.0%,-11.4%,COc1ccc(CN2C3CCCC2CC(NC(=O)Nc2ccccc2)C3)cc1 (centres undefined)
5.0,1.5%,-3.4%,1.2%,Cc1cc(C)cc(OCc2nnc(SCC(=O)OC(C)C)o2)c1
x,1.8%,0.7%,-0.5%,COC(CN(C)S(=O)(=O)c1cc2c3c(c1)CCN3C(=O)CC2)OC
x,-7.4%,-4.9%,12.3%,COc1ccc(NS(=O)(=O)c2cccs2)cc1S(=O)(=O)N1CCOCC1
x,0.0%,1.5%,12.4%,CCOC(=O)CC1(NC(=O)c2cc(COc3ccc(F)c(F)c3)on2)CCCCC1
6.5,u,-4.0%,-1.7%,CC(NC(=O)CCNC(=O)c1ccccc1Cl)C1CC2CCC1C2 (centres undefined)
0.6,11.3%,-4.2%,-4.2%,CCN1C(=O)/C(=C2/C=Cc3cc(C)ccc3N2CC)N(C)C1=S
